# Source: PubChem (National Center for Advancing Translational Sciences (NCATS))
# Lassa entry inh = blocks Lassa virus binding to or entry into cells; Lassa virus pseudotype entry inhibition, cell reporter; control for the full effect not named in the record; Potency, µM (titrated, usually from 37.9 µM), without a hit: at the highest dose activity change, negative = inhibition, actives largely listed as inhibitors; 1.2% of 300,000 active; active means well fitted inhibition curve with a large enough effect; inconclusive means small, poorly fitted or top-dose-only effect, or effect the other way; inactive means flat fitted curve, though single readings scatter; tested in HEK293 cells; further: on the % scale 0 is the no-effect control and ±100 the full control effect; nearly all actives have a fitted effect of over 50% in size; luciferase read-out
# 2A StopGo = lowers the luciferase signal of an FMDV 2A StopGo reporter | 1.2% of 410,000 active | Potency, µM (highest dose often 57.9 µM), without a hit: at the highest dose signal change, negative = less light | human cells with a luciferase reporter of 2A StopGo recoding; control for the full effect not named in the record; active = well fitted falling curve with a large enough effect; inconclusive = small, poorly fitted or top-dose-only effect; inactive = no such curve, though single readings can be large or run the other way; tested in HEK293T cells; further: on the % scale 0 is the no-effect control and ±100 the full control effect; nearly all actives have a fitted effect of over 45% in size; luciferase light after 4 h
# RE007 growth inh = less growth of the S. pombe RE007 Vpr strain; Potency, µM (titrated, usually from 92.2 µM), inactives show at the top dose activity change, negative = less growth; S. pombe RE007 Vpr strain, BacTiter-Glo ATP luminescence, 24 h; control for the full effect not named in the record; AID 651644; 0.21% of 360,000 active; active = well fitted falling curve with a large enough effect; inconclusive = small, poorly fitted or top-dose-only effect; inactive = no such curve, though single readings can be large or run the other way;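 further: on the % scale 0 is the no-effect control and ±100 the full control effect; nearly all actives have a fitted effect of over 50% in size; the assay follows cell death caused by Vpr and the record does not say whether a fall means rescue or toxicity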
#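 Fission yeast strain RE007, carrying one chromosomally integrated HIV-1 vpr copy, was seeded at OD 0.01 in PMG+AL medium with 23 nL pinned compound. After 24 h at 30 °C and 99% humidity, viability was read by BacTiter-Glo luminescence.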
# SARS PLP yeast = inhibitors of SARS-CoV papain-like protease in yeast; AID 485353; S. cerevisiae expressing SARS-CoV PLpro, growth rescue; control for the full effect not named in the record; 0.19% of 330,000 active; Potency, µM (doses to about 32.9 µM), without a hit: at the highest dose activity, positive = growth rescue; active means well fitted rising curve with a large enough effect; inconclusive means small, poorly fitted or top-dose-only effect; inactive means no such curve, though single readings can be large or run the other way; further: 0% is about no effect; nearly all actives have a fitted effect of over 55% in size; growth read by luminescence after 48 h
# Marburg entry inh = blocks Marburg virus binding to or entry into cells. AID 540276. 1.8% of 300,000 active. Marburg virus pseudotyped entry inhibition, cell reporter; control for the full effect not named in the record; about a third of the inactives were read at about 46 µM. Potency, µM (highest dose often 37.8 µM), for inactives: top-dose activity change, negative = inhibition, most hits filed as inhibitors; active = well fitted inhibition curve with a large enough effect; inconclusive = small, poorly fitted or top-dose-only effect, or effect the other way; inactive = flat fitted curve, though single readings scatter; tested in HEK293 cells; about a fifth of its hits are not listed in these tables; further: on the % scale 0 is the no-effect control and ±100 the full control effect; luciferase read-out
# * hit, by the source's call; ? = inconclusive; . = no result given; [ ] = remark or other dose. Potency means the concentration at half of the fitted maximal effect. A portion of the library; the hit share may differ from the screen's.
SMILES,Lassa entry inh,2A StopGo,RE007 growth inh,SARS PLP yeast,Marburg entry inh
NS(=O)(=O)C#Cc1ccccc1,5.8µM*,?,.,.,?
O=c1c(-c2cc(-c3ccccc3)nc3c2COc2ccccc2-3)coc2ccc(Cl)cc12,7%[46.1 µM],-6%,.,.,23%[46.1 µM]
COc1ccc(-c2cc(-c3ccc(C)cc3)nc3c2COc2ccccc2-3)cc1,?,-19%,.,.,4%[46.1 µM]
CCCCN1C(=O)C(NC(=O)c2ccc(C(C)(C)C)cc2)(C(F)(F)F)C(C(=O)OC)=C1C (configuration not stated),-2%[46.1 µM],-10%,.,.,?
Cc1ccc(-c2cc3ncc4c(n3n2)-c2cc(F)ccc2OC4)cc1,-12%[46.1 µM],54%[activator],.,.,?
COc1cc(NC(=O)Cn2ccc3ccccc3c2=O)cc(OC)c1OC,-16%[46.1 µM],-12%,.,.,7%[46.1 µM]
Cc1ccc2c(c1)-c1nc(-c3ccc4c(c3)NC(=O)CO4)cc(-c3ccc(F)cc3)c1CO2,12%[46.1 µM],-11%,.,.,2%[46.1 µM]
COc1ccc(C(=O)NCCn2cc(SCC(=O)Nc3ccc(F)cc3)c3ccccc32)cc1,-28%[46.1 µM],?,.,.,-22%[46.1 µM]
O=C(Nc1cccc(Cl)c1Cl)c1cc2nc(-c3ccc4c(c3)OCO4)cc(C(F)(F)F)n2n1,5%[46.1 µM],-10%,.,.,0%[46.1 µM]
O=C(CN1CCCN(S(=O)(=O)c2ccc(Br)cc2)CC1)Nc1cccc(C(F)(F)F)c1,0%[46.1 µM],-30%,.,.,?
O=C(NCCn1cc(SCc2ccccc2F)c2ccccc21)c1cccs1,-12%[46.1 µM],0%,.,.,?
O=c1n(Cc2ccccc2)nc2n1-c1cc(Cl)ccc1OC2,-1%[46.1 µM],17%,.,.,1%[46.1 µM]
COc1ccc(CCn2c3c(c(=O)[nH]c2=O)C(NC(=O)c2ccc(C(C)(C)C)cc2)(C(F)(F)F)C(=O)N3)cc1OC (configuration not stated),16%[46.1 µM],-6%,.,.,?
O=[N+]([O-])c1ccc(O)c(-c2ccnc3cc(-c4ccccc4)nn23)c1,?,?,.,.,-15%[46.1 µM]
COCCCN1CN=C(NS(=O)(=O)c2ccc(NC(C)=O)cc2)NC1,-3%[46.1 µM],2%,.,.,?
COc1ccc(NC(=O)CSc2cn(CCNC(=O)c3ccc(OC)cc3)c3ccccc23)cc1,?,-24%,.,.,?
Cc1nn2c3c(cnc2c1-c1ccc(Cl)cc1)C(=O)CC(c1ccc(C(C)C)cc1)C3 (configuration not stated),17%[46.1 µM],0%,.,.,0%[46.1 µM]
CCOC(=O)c1cnc2cc(C(F)(F)F)ccc2c1N1CCN(c2cccc(Cl)c2)CC1,-25%[46.1 µM],0%,.,.,5%[46.1 µM]
O=c1n(Cc2ccc(Cl)cc2)nc2n1-c1ccccc1OC2,1%[46.1 µM],25%,.,.,23%[46.1 µM]
CC(=O)N1N=C(c2ccc(C)cc2)CC1c1cn(-c2ccccc2)nc1-c1cccs1 (configuration not stated),-25%[46.1 µM],0%,.,.,-6%[46.1 µM]
CCOC(=O)c1c(NC(=O)CSc2cn(CCNC(=O)c3ccccc3OC)c3ccccc23)sc2c1CCC2,?,-20%,.,.,13µM*
CCOC(=O)c1cnc2ccc(OCC)cc2c1Nc1cc(Cl)c(OC)cc1OC,-1%[46.1 µM],?,.,.,5%[46.1 µM]
COc1ccc(-c2cc(C(F)(F)F)n3nc(C(=O)Nc4cc(C)ccc4C)cc3n2)cc1,-10%[46.1 µM],-25%,.,.,6%[46.1 µM]
O=C(NCCn1cc(SCc2ccccc2Cl)c2ccccc21)c1cccs1,?,-25%,.,.,5%[46.1 µM]
Cc1ccc(-c2cc3ncc(C(=O)c4cc([N+](=O)[O-])ccc4O)cn3n2)cc1,10%[46.1 µM],?,.,.,0%[46.1 µM]

# Structural class: the entries above with an aryl methoxy group.
SMILES,Lassa entry inh,2A StopGo,RE007 growth inh,SARS PLP yeast,Marburg entry inh
COc1ccc(-c2cc(-c3ccc(C)cc3)nc3c2COc2ccccc2-3)cc1,?,-19%,.,.,4%[46.1 µM]
COc1cc(NC(=O)Cn2ccc3ccccc3c2=O)cc(OC)c1OC,-16%[46.1 µM],-12%,.,.,7%[46.1 µM]
COc1ccc(C(=O)NCCn2cc(SCC(=O)Nc3ccc(F)cc3)c3ccccc32)cc1,-28%[46.1 µM],?,.,.,-22%[46.1 µM]
COc1ccc(CCn2c3c(c(=O)[nH]c2=O)C(NC(=O)c2ccc(C(C)(C)C)cc2)(C(F)(F)F)C(=O)N3)cc1OC (configuration not stated),16%[46.1 µM],-6%,.,.,?
COc1ccc(NC(=O)CSc2cn(CCNC(=O)c3ccc(OC)cc3)c3ccccc23)cc1,?,-24%,.,.,?
CCOC(=O)c1c(NC(=O)CSc2cn(CCNC(=O)c3ccccc3OC)c3ccccc23)sc2c1CCC2,?,-20%,.,.,13µM*
CCOC(=O)c1cnc2ccc(OCC)cc2c1Nc1cc(Cl)c(OC)cc1OC,-1%[46.1 µM],?,.,.,5%[46.1 µM]
COc1ccc(-c2cc(C(F)(F)F)n3nc(C(=O)Nc4cc(C)ccc4C)cc3n2)cc1,-10%[46.1 µM],-25%,.,.,6%[46.1 µM]

# The results go on.
SMILES,Lassa entry inh,2A StopGo,RE007 growth inh,SARS PLP yeast,Marburg entry inh
Cc1ccc(-c2cc(-c3ccc4c(c3)NC(=O)CO4)nc3c2COc2ccccc2-3)cc1,29%[46.1 µM],-17%,.,.,?
COc1ccc(C(=O)NCCn2cc(SCC(=O)Nc3ccccc3)c3ccccc32)cc1OC,-17%[46.1 µM],-22%,.,.,-21%[46.1 µM]
COc1ccccc1NC(=O)Cn1cnc2ccc(S(=O)(=O)N3CCC(C)CC3)cc2c1=O,-2%[46.1 µM],0%,.,.,?
O=c1c(-c2cc(-c3ccc(Cl)cc3)nc3c2COc2ccccc2-3)coc2ccccc12,9%[46.1 µM],-6%,.,.,12%[46.1 µM]
Clc1ccc2c(c1)-n1cc(-c3ccccc3)nc1CO2,3%[46.1 µM],19%,.,.,13%[46.1 µM]
CCN1CCOC(=O)C1CC(=O)Nc1cc(C)ccc1OC (configuration not stated),16%[46.1 µM],-19%,.,.,-1%[46.1 µM]
Cc1ccc2cccc(NC(=O)c3ccc(C#N)cc3F)c2n1,-5%[46.1 µM],6%,.,.,9%[46.1 µM]
CCn1cc(C(=O)N2CCN(c3cc(Cl)ccc3C)CC2)c2cc(OC)c(OC)cc2c1=O,-11%[46.1 µM],?,.,.,0%[46.1 µM]
COc1ccc(NC(=O)Cn2cnc3ccc(S(=O)(=O)N4CCC(C)CC4)cc3c2=O)cc1Cl,-8%[46.1 µM],2%,.,.,2%[46.1 µM]
COc1ccc(NC(=O)CC2NCCNC2=O)c(OC)c1 (configuration not stated),?,-5%,.,.,2%[46.1 µM]
Cc1ccc(-c2cc(-c3coc4ccccc4c3=O)c3c(n2)-c2cc(Cl)ccc2OC3)cc1,-2%[46.1 µM],-2%,.,.,-23%[46.1 µM]
COC1(C(F)(F)F)NC(=O)N(c2ccc(F)cc2)C1=O (configuration not stated),-1%[46.1 µM],-12%,.,.,-4%[46.1 µM]
CCOc1ccc(NC(=O)CC2C(=O)OCCN2CC)cc1 (configuration not stated),-5%[46.1 µM],15%,.,.,13%[46.1 µM]
COc1ccc(Cl)cc1NC(=O)c1cc2nc(-c3ccc4c(c3)OCO4)cc(C(F)(F)F)n2n1,7%[46.1 µM],-9%,.,.,?
CCCCc1c(C)nc2c(-c3ccc(OC)cc3)c(C)[nH]n2c1=O,9%[46.1 µM],?,.,.,2%[46.1 µM]
CCOC(=O)c1c(NC(=O)C(C)Sc2cn(CCNC(=O)c3ccc(OC)cc3)c3ccccc23)sc2c1CCC2 (configuration not stated),-5%[46.1 µM],-15%,.,.,.
O=C1COc2ccc(-c3cc(-c4ccccc4)c4c(n3)-c3cc(Cl)ccc3OC4)cc2N1,-18%[46.1 µM],-10%,.,.,8%[46.1 µM]
O=C(CC1NCCNC1=O)Nc1ccccc1F (configuration not stated),4%[46.1 µM],-12%,.,.,-11%[46.1 µM]
COc1ccc(NC(=O)Cn2cnc3ccc(S(=O)(=O)N4CCC(C)CC4)cc3c2=O)c(OC)c1,0%[46.1 µM],11%,.,.,-26%[46.1 µM]
CC1(C)C[C@H]2C3=CCC4[C@@]5(C)CC[C@H](O)C(C)(C)C5CC[C@@]4(C)[C@]3(C)[C@@H](O)[C@@H](O)[C@@]2(CO)[C@@H](O)[C@@H]1O (some centres not stated),.,0%,-15%,-2%,.
Cc1ccc(S(=O)(=O)N2CCC[C@H]2C(=O)Nc2ccc(F)cc2C)cc1,.,-27%,-4%,-8%,.
CCC(=O)NC(=S)NNC(=O)c1ccc(NC(=O)c2ccccc2)cc1,.,-11%,1%,3%,.
CCn1c(Cc2ccccc2)nnc1SCC(=O)c1c(N)n(C2CC2)c(=O)[nH]c1=O,.,-6%,3%,-2%,.
COc1ccc(C(=O)N/C(=C\c2ccc([N+](=O)[O-])cc2)C(=O)NC(CCSC)C(=O)O)cc1 (configuration not stated),.,-2%,-4%,-3%,.
NC(=O)c1ccc(NC(=O)c2cc(S(=O)(=O)N3CCCCC3)ccc2N2CCOCC2)cc1,.,-15%,5%,-9%,.

# Molecules above that contain a tert-butyl group, in the order listed:
SMILES,Lassa entry inh,2A StopGo,RE007 growth inh,SARS PLP yeast,Marburg entry inh
CCCCN1C(=O)C(NC(=O)c2ccc(C(C)(C)C)cc2)(C(F)(F)F)C(C(=O)OC)=C1C (configuration not stated),-2%[46.1 µM],-10%,.,.,?
COc1ccc(CCn2c3c(c(=O)[nH]c2=O)C(NC(=O)c2ccc(C(C)(C)C)cc2)(C(F)(F)F)C(=O)N3)cc1OC (configuration not stated),16%[46.1 µM],-6%,.,.,?

# (list continues)
SMILES,Lassa entry inh,2A StopGo,RE007 growth inh,SARS PLP yeast,Marburg entry inh
C[C@H]1COC(=O)[C@H](NC(=O)OCC2c3ccccc3-c3ccccc32)C/C=C\C[C@H](CC(=O)N(CCO)Cc2ccccc2)C(=O)N1,.,-25%,-2%,-2%,.
Cc1ccc(S(=O)(=O)N2CCN(C(=O)COC(=O)c3cccnc3Cl)CC2)c(C)c1,.,-12%,-1%,0%,.
NC(=O)c1cc([N+](=O)[O-])ccc1NCc1ccc(C(=O)O)cc1,.,-19%,18%,-5%,.
Cc1noc(C)c1COc1ccc(CC(=O)NCc2ccccc2)cc1,.,-12%,4%,0%,.
CC1CCN(c2cc(N(C)CCO)c([N+](=O)[O-])c3nonc23)CC1,.,12%,1%,2%,.
COC(=O)C1=C(c2ccc(F)cc2OCc2ccccc2)C[C@@H]2CC[C@H]1N2C(=O)NCc1ccc(N(C)C)cc1,.,-17%,1%,-5%,.
COC(=O)[C@]1(CC(C)C)N[C@H](c2ccc(-c3ccc(F)cc3)c(OC)c2)[C@@H]2C(=O)N(C)C(=O)[C@@H]21,.,0%,-6%,-16%,.
O=C(NCCc1ccc(F)cc1)C1CCN(C(=O)Nc2ccccc2)CC1,.,-11%,29%,0%,.
O=C(CNC(=O)c1ccccc1Cl)OC1CCOC1=O (configuration not stated),.,-5%,2%,-2%,.
O=C(CSc1ccccc1)Nc1cccc(S(=O)(=O)N2CCCCC2)c1,.,0%,9%,-7%,.
CCN1C(=O)C(=O)N(CC(=O)Nc2ccccc2OC(F)F)C1=O,.,9%,4%,4%,.
COc1ccc(C(=O)N2CCCN(C)CC2)cc1S(=O)(=O)N(C)Cc1ccccc1,.,-7%,2%,4%[6.58 µM],.
COc1ccc(C(=O)CCC(=O)Nc2ccc(N3CCN(C)CC3)cc2)cc1OC,.,3%,-4%,0%,.
Cc1nnsc1C(=O)NNC(=O)Nc1ccccc1,.,12%,12%,0%,.
